Screening data (PubChem BioAssay)
Biofilm kill mix – clotrimazole potentiators killing C. albicans biofilm, primary screen, 4-compound mixtures; C. albicans biofilm persisters + clotrimazole, fluorescence viability; primary screen in compound mixtures of four per well; inhibition, % at 7.6 µM; 120,000 tested, 0.02% active; AID 1242, 2008;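 active = inhibition above 30.3% in the primary screen of four-compound pools, then above 30% when the compound was retested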;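 note: compounds exposed to preformed 24 h biofilms for 48 h; the number belongs to the whole pool; some results filed as inactive read as strong as hits; inactives centre near 12; 0% = biofilm with clotrimazole alone and 100% = kill control; retested singly at about 60 µM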
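Incubation: 24 h biofilm formation, then 48 h compound exposure, 37 °C | Material: C. albicans biofilms | Buffer or medium: RPMI/MOPS medium, pH 7.0 | Measured by: 2-h Alamar Blue fluorescence, 535/590 nm excitation/emission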
An asterisk follows results filed as active. Some of the compounds tested, so the mix of outcomes need not match the whole.

SMILES | Biofilm kill mix
CC/C(C)=N\NC(=O)CNC(=O)c1ccc(Cl)cc1Cl | 15.8
Cc1nc(NC(=O)c2ccccc2)sc1-c1csc(Nc2ccc(C(=O)O)cc2)n1 | 14.1
Cn1c(=O)c2c(nc(NCCOc3ccc(F)cc3)n2C)n(C)c1=O | -13.1
Cc1oc(-c2cc3c(cc2Cl)OCO3)nc1CN1CCCC1c1ccc(F)cc1 (stereo not drawn) | 0.8
O=[N+]([O-])c1ccc2c(c1)/C(=N\O)c1ccccc1-2 | 15.2
COc1cccc(CN2CCCC(C(=O)c3ccc4c(c3)OCO4)C2)c1OC (stereo not drawn) | 7.3
COc1cccc(OCCNC(=O)CSc2ccc(C(F)(F)F)cc2[N+](=O)[O-])c1 | 16.5
CC1CCN(CC(=O)NC(=O)NCc2ccccc2)CC1 | 14.4
CCN(CC)S(=O)(=O)c1ccc(OC)c(NC(=O)C(Cc2ccccc2)N2C(=O)c3ccccc3C2=O)c1 (stereo not drawn) | 2.4
O=C1CCCC(=O)N1c1ccc(Oc2ccc(Cl)cc2)cc1 | 16.5
CN(C)CCCN(C(=O)c1ccc2c(c1)CCCC2)c1nc2c(F)cccc2s1 | 9.0
COc1ccc(-c2cc3ccccc3[nH]2)cc1 | 16.0
NC1=NC(=O)/C(=C/c2ccccc2OS(=O)(=O)c2ccc3ccccc3c2)S1 | 16.1
CCn1c(SCC(=O)Nc2nccs2)nnc1-c1ccco1 | 2.6
Cc1ccc(CN2CCN(C(=O)c3ccncc3)CC2)cc1 | 12.2
CCCC(CCC(=O)Nc1ccn(-c2ccccc2)n1)C(=O)O (stereo not drawn) | 18.4
Cc1ccnc2ccc(SC(F)(F)F)cc12 | 12.8
Cc1ccc(-n2c(SC3CCOC3=O)nc3ccccc3c2=O)cc1 (stereo not drawn) | 12.1
O=S(=O)(Nc1nc2ccccc2nc1Nc1ccc(N2CCOCC2)cc1)c1cc(Cl)ccc1Cl | 13.3
O=C(COc1cc(Cl)c(Cl)cc1Cl)Nc1ccc([N+](=O)[O-])cc1Cl | 14.9
O=C(COc1ccc(Cl)cc1)N1CCCC1 | 18.5
Cc1ccc(/C=N/Nc2nc3ccccc3s2)o1 | 10.7
Cc1ccc(N2C(=O)CC(Sc3ccccc3C(=O)O)C2=O)cc1C (stereo not drawn) | 15.2
COc1cccc(N2C(=O)CC(NNc3nc4ccccc4s3)C2=O)c1 (stereo not drawn) | 0.4
Nc1nc(SCC(=O)Nc2ccc3c(c2)CCC3)n[nH]1 | 7.4
O=[N+]([O-])c1ccc(CSc2nc3ncc(Br)cc3[nH]2)cc1 | 24.9
COCC(=O)NNC(=S)Nc1cccc(C)c1C | 15.8
COc1ccccc1N=Cc1c(C)[nH]n(-c2ccc(C)cc2C)c1=O | 4.0
CC(C)(C)c1ccc(C2C(C#N)=C(N)Oc3n[nH]c(-c4cccnc4)c32)cc1 (stereo not drawn) | 14.0
O=c1c2nncn2c2cc(C(F)(F)F)ccc2n1CCNc1ncc(C(F)(F)F)cc1Cl | 17.9
CS(=O)(=O)N1CCN(C2C3CC4CC(C3)CC2C4)CC1 (stereo not drawn) | 7.6
CCOC(=O)CC1C(=O)NCCN1S(=O)(=O)c1ccc(OC)cc1 (stereo not drawn) | 9.4
COc1ccc(NC(=S)NC(=O)/C=C/c2ccco2)cc1 | 12.6
CC(C)(C)c1ccc(OCCCC(=O)N2CCOCC2)cc1 | 24.6
C#Cc1ccc([C@@H]2C=C(C(=O)N3CCOCC3)O[C@H](OCC)[C@H]2CCCO)cc1 | 15.8
Cc1ccc(S(=O)(=O)N(C)C)cc1-n1c(SCC(=O)Nc2ccc(F)cc2)nc2ccccc2c1=O | 12.9
N=C1c2ccccc2CN1NC(=O)c1cccc(S(=O)(=O)N2CCOCC2)c1 | 10.7
CC(=O)OC(C)C[N+](C)(C)C (stereo not drawn) | 16.2
Cc1ccc(N2C(=O)N(CC(=O)Nc3cc(C)cc(C)c3)C(=O)C2C)cc1 (stereo not drawn) | 16.5
COc1ccc(OCCOc2ccccc2[N+](=O)[O-])cc1 | 16.2
N#CCCN(Cc1cccnc1)C(=S)NC(=O)C1CC1 | 10.8
COc1ccc(N(C(=O)c2cccnc2)S(=O)(=O)c2cccs2)cc1 | 10.6
Fc1cc(F)cc(-c2oncc2-c2nnnn2-c2ccccc2)c1 | 11.8
O=C(O)C1CN(C(=O)c2cccc(Br)c2)C1 | 24.9
O=C(CN(c1cccc(C(F)(F)F)c1)S(=O)(=O)c1ccc(Cl)c([N+](=O)[O-])c1)NCc1ccccc1Cl | 9.7
CSc1ccc(C(=O)C2CCCN(Cc3cccn3-c3cccnc3)C2)cc1 (stereo not drawn) | 13.7
CC(C)c1ccccc1NC(=O)Nc1ccc(F)cc1F | 20.0
Cc1ccc(/C=N/NC(=O)CCSc2ccccc2)cc1 | 14.1
O=C(O)c1ccc(N/N=C/c2ccnc3ccccc23)cc1 | 17.5
Cc1c(NC(=O)c2ccc(Cl)nc2)cccc1-c1nc2cccnc2s1 | 27.8
(cont.)
SMILES | Biofilm kill mix
O=C(/C=C/c1ccco1)Nc1ccc(CN2CCOCC2)cc1 | 12.7
O=S(=O)(c1ccc(-c2ccon2)s1)N1CCN(CCN2CCOCC2)CC1 | 22.0
O=c1c2ccccc2nc(COc2ccccc2)n1/N=C/c1cc([N+](=O)[O-])ccc1O | 15.0
CC1(C)Cc2c(sc3nnn(Cc4ccc(Cl)cc4)c(=O)c23)CO1 | 0.5
Cc1cccc(C)c1NC(=S)NCc1ccncc1 | 26.5
COc1ccc(OCC(=O)NCCCn2ccnc2)cc1 | 6.9
O=S(=O)(Nc1cc(Sc2cccc3cccnc23)c(O)c2ccccc12)c1ccccc1 | 22.9
COc1ccc(C2CC(=O)c3ccccc3O2)cc1 (stereo not drawn) | 15.7
Cc1ccc(CNC(=O)c2cc(COc3c(F)cccc3F)on2)s1 | -6.0
O=C(O)c1ccc2c(c1)C1C=CCC1C(c1cc3c(cc1Br)OCO3)N2 (stereo not drawn) | 17.9
CN(CCCNC(=O)CCCOc1cc(=O)n(C)c2ccccc12)Cc1ccccc1 | 9.2
COC(=O)[C@@H]1CCCN1C(=O)CCc1nnc(CCc2c[nH]c3ccccc23)o1 | 6.6
CC(C)Cc1nc(Nc2ccc(S(=O)(=O)N3CCCC3)cc2)c2nnn(Cc3ccccc3)c2n1 | 7.5
CC(CCc1ccccc1)NCC(O)COc1ccccc1 (stereo not drawn) | 6.3
O=C(NNC(=O)C1C2CCC(C2)C1C(=O)O)c1ccc(Cl)cc1 (stereo not drawn) | 3.3
Cc1c(NC(=O)N(C)C)c(=O)n(-c2ccccc2)n1C | -6.0
CCNC(=S)N(Cc1cc2cc(C)cc(C)c2[nH]c1=O)C1CCCC1 | 9.9
CN1C(=O)CC(N2CCC(C(N)=O)CC2)C1=O (stereo not drawn) | 16.8
CCOc1ccc(CN2CCNC(=O)C2CC(=O)O)cc1 (stereo not drawn) | 24.9
COc1ccc(/C=C2/C(=N)N3C(=NC2=O)Sc2cc(S(C)(=O)=O)ccc23)cc1OC | 4.7
CN1CCN(S(=O)(=O)c2ccc(N3CCN(C(c4ccccc4)c4ccccc4)CC3)nc2)CC1 | 12.1
COc1ccccc1N1CCN(CC(=O)c2c[nH]c3ccccc23)CC1 | 7.9
CC1=C(C#N)C(/C=N/OCc2ccc(Cl)cc2)CC(=O)N1 (stereo not drawn) | -2.9
CCNC(=S)N(Cc1cccs1)Cc1cc2cc(OCC)ccc2[nH]c1=O | 15.6
CCCCC#Cc1ccc2c(c1)COc1c3ccccc3nn1-2 | 14.0
O=C(Nc1cccnc1)c1ccc([N+](=O)[O-])cc1Cl | 23.2
CCCSc1nc2sc3c(c2c(=O)[nH]1)CC(C)CC3 (stereo not drawn) | 16.9
O=C(CN1C(=O)c2cccc3cccc1c23)Nc1cccnc1 | 14.8
CCOc1ccc(C(=O)OCCCN(C)C)cc1 | 9.4
CC(=O)N1CCC(N(CCN2CCOCC2)C(=S)Nc2ccc(C)cc2)CC1 | 17.2
CCCC(=O)OC1CC(C)N(C(=O)c2ccccc2)c2ccc(C)cc21 (stereo not drawn) | -3.9
CC(C)n1c(=S)[nH]c2scc(-c3cccs3)c2c1=O | 23.0
CCN(C(C)=O)c1nc(CCl)cs1 | 4.0
O=c1c2ccccc2nc(SCc2ccc([N+](=O)[O-])cc2)n1CCCO | 12.9
CC(=O)c1cc2c(cc1NC(=O)CSc1nc3ccccc3[nH]1)OCO2 | 22.9
Cc1ccc(-c2csc3ncnc(SCC(N)=O)c23)cc1 | 10.4
O=C(O)c1cccc(NC(=S)N/N=C/c2cccnc2)c1 | 7.7
Nc1nn(-c2ccccc2)nc1C(=O)OCc1ccccc1 | 19.0
COc1cc(SC)ccc1C(=O)OCC(=O)NC(=O)NC(C)C | 10.2
O=C(CNC(c1ccccc1)c1ccccc1)Nc1c(F)cccc1F | 12.8
N#CC1=C(N)OC2=C(C(=O)CC(c3ccccc3)C2)C1c1ccc2c(c1)OCO2 (stereo not drawn) | 16.7
O=C(CN1CCN(c2ccccn2)CC1)Nc1cccc(S(=O)(=O)N2CCOCC2)c1 | 7.1
Cc1ccc(S(=O)(=O)N2CCOCC2)cc1NC(=O)CSc1nnnn1C | 12.4
COc1ccc(/C=N/NC(=O)c2cccnc2)cc1Cn1nc([N+](=O)[O-])c(Br)c1C | 20.1
O=C(CSc1cccs1)NCCc1ccccc1 | 12.4
CC1CCC(C(C)C)C(OCC[N+](C)(C)C)C1 (stereo not drawn) | 11.8
COc1ccc(N=C2C(=Nc3ccc(OC)cc3)N(c3ccc(OC)cc3)C(=S)N2C(=O)c2ccc(OC)cc2)cc1 | 4.9
O=S(=O)(c1cccc(-c2nnco2)c1)N1CCOCC1 | 10.1
CC/C(C)=N/Nc1nc(-c2cc3cccc(OC)c3oc2=O)cs1 | 16.5
Cc1ccc(C)c(N2CCN(C(=S)NC3CCCCC3)CC2)c1 | 17.5
(further entries)
SMILES | Biofilm kill mix
CC1(C)Cc2c(C#N)c(NCCN3CCOCC3)nc(-c3ccccc3)c2CO1 | 22.0
CC(C)NC(=S)NC(=O)c1ccc(-c2ccccc2)cc1 | 6.6
CC(CN1CCCCCC1)C(=O)NN (stereo not drawn) | 16.6
O=C(Nc1ccccc1)c1ccccc1OCc1ccc(S(=O)(=O)N2CCOCC2)cc1 | 22.8
CC(C)CNC(=O)COC(=O)CCC(=O)c1cccs1 | 10.3
COc1cc(O)sc1C=Nc1ccc(Cl)cc1Cl | 10.9
C=CCNC(=S)Nc1cccc([N+](=O)[O-])c1 | 20.2
Nn1c(SCC(=O)NC2CCS(=O)(=O)C2)nnc1-c1cccs1 (stereo not drawn) | 5.7
Cc1[nH]n(C)c(=O)c1C(=O)c1c(-c2c(Cl)cccc2Cl)noc1C | 18.3
Cc1ccc(C(=O)Oc2cccc(-n3cnnn3)c2)cc1 | 11.0
CC(CNC(=O)CCc1nnc(CCC2CCCCC2)o1)c1ccccc1 (stereo not drawn) | 11.1
O=C(N/N=C/c1ccc([N+](=O)[O-])o1)C(O)c1ccccc1 (stereo not drawn) | 11.8
O=C(O/N=C1\CCCc2ccccc21)c1cccs1 | -5.0
OC(CCCN1CCCCC1)(c1ccccc1)c1ccccc1 | 13.7
Cn1c2c(c(=O)n(C)c1=O)C(c1ccc(Cl)cc1)C(C#N)=C(N)O2 (stereo not drawn) | 10.9
CCCCCCCCC(=O)N/N=C(\C)c1cccnc1 | 13.1
COc1cc(NC(=O)c2ccccc2)c(OC)cc1NC(=O)Cc1cccs1 | 8.6
COc1cccc(S(=O)(=O)NCC(=O)Nc2ccc(C(C)(C)C)cc2)c1 | 11.4
O=C(CSc1ncn[nH]1)Nc1ccc(OCc2ccccc2)cc1 | 19.2
COC(=O)c1c(NC(C)=O)sc(C(=O)Nc2ccccc2F)c1C | 14.5
COCCCNC(=O)CCc1nnc(Cc2ccc(-c3ccccc3)cc2)o1 | 10.9
COc1ccccc1NS(=O)(=O)c1cc(NC(=O)CNC(=O)c2cc(C)cc(C)c2)ccc1C | 10.2
CCCCN1CNC(=S)N(c2ccccc2OCC)C1 | 10.6
